Source: PubChem (National Center for Advancing Translational Sciences (NCATS))
Menin-MLL FL inh – qHTS Assay for Inhibitors Targeting the Menin-MLL Interaction in MLL Related Leukemias: Competition With Fluorescein Labeled MLL-derived Peptide | Fluorescence polarization, fluorescein-MLL peptide displacement from menin | FP activity change, % at 61.4 µM | 290,000 tested, under 10 active | AID 1766, 2009; inconclusive = falling polarisation curve, or a change in total fluorescence; inactive = total fluorescence flat and polarisation flat or rising; no compound was filed as active; the % refers to the polarisation; negative = inhibition;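 note: % of control where 0% means no effect; inhibitors lower the polarisation; unlabelled MLL peptide was the positive control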
TRPV1 PAM – HTS Assay for Compounds that Act as Potentiators of the Vanilloid Receptor 1; actives 0.02% (n = 320,000); potentiation, % at 8.33 µM; TRPV1-expressing cells, Fluo-8 calcium influx, capsaicin EC20 potentiation; host cell line not named in the record; control for the full effect not named in the record; active means potentiation above 80%; inconclusive means 30% to 80%; inactive means below 30%; note: 0% is about no effect
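TRPV1-expressing cells were cultured overnight at 35.5C and loaded with Fluo-8 calcium dye for 40 to 90 min at room temperature. After a 10 s baseline, compound was added and calcium influx was read kinetically for 3 min (ex 480/em 520 nm).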
ClpP mod – qHTS Assay for Activators of ClpP. actives 1.9% (n = 340,000). Potency, µM (titrated, usually from 57.5 µM), without a hit: at the top dose activity change, negative = active. AID 651965, 2013. purified B. subtilis ClpP, FRET peptide cleavage, 20 min. ATP-dependent Clp protease proteolytic subunit (Bacillus subtilis (strain 168)), P80244; active = well fitted falling curve with a large enough effect; inconclusive = small, poorly fitted or top-dose-only effect; inactive = no such curve, though single readings can be large or run the other way; note: potency is the fitted concentration of half-maximal effect; the source files actives as falling curves though it sought activators and does not explain the sign; nearly all actives have a fitted effect of over 65% in size; many hits overshoot -100%
Target sequence (P80244 whole entry, looked up): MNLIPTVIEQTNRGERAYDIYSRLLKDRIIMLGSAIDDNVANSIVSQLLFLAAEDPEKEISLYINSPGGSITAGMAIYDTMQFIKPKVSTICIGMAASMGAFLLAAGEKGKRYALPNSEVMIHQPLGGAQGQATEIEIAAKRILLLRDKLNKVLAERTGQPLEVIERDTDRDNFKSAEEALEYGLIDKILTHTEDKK
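Purified B. subtilis ClpP, 10 microg/mL final in Tris/HCl pH8 with KCl, BSA, glycerol and Tween-20, cleaved an Abz/nitrotyrosine-quenched decapeptide. Fluorescence (ex 320, em 430) was read at 0 and 20 min at room temperature. Delta was normalized to 5.8 microM ADEP and DMSO/no-enzyme controls.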
gsp antagonist – qHTS for Antagonists of gsp, the Etiologic Mutation Responsible for Fibrous Dysplasia/McCune-Albright Syndrome: qHTS. AID 624288, 2012. gsp-mutant cells, cAMP HTRF, 30 min; control for the full effect not named in the record. Potency, µM (titrated, usually from 76.9 µM), for the others: at the highest dose activity change, negative = inhibition, usual class: inhibitors. actives 0.4% (n = 340,000); active = falling curve of any shape with a large fitted effect; inconclusive = falling curve, mostly with a smaller effect; inactive = flat or rising curve; cell line not stated here;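 note: intracellular cAMP measured with PDE inhibitor Ro 20-1724 present during compound exposure; potency is the fitted concentration of half-maximal effect; % is set by controls: 0 for no effect and ±100 for the full control effect; nearly all actives have a fitted effect of over 65% in size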
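G418-selected cells were plated in DMEM/10% FBS for 16-24 h at 37C, then treated with compounds plus the PDE inhibitor […] (300 uM solution added) for 30 min at 37C. Intracellular cAMP was measured by HTRF after 30 min lysis at room temperature.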
gsp ag – qHTS for Agonist of gsp, the Etiologic Mutation Responsible for Fibrous Dysplasia/McCune-Albright Syndrome: qHTS; gsp mutant cells, cAMP HTRF, 30 min; control for the full effect not named in the record; Potency, µM (highest dose often 76.9 µM), inactives show at the highest dose activation (cAMP increase), most hits filed as activators; actives 0.13% (n = 340,000); AID 624287, 2012; active = well fitted activation curve with a large enough effect; inconclusive = small, poorly fitted or top-dose-only effect, or another doubt; inactive = no such curve, though single readings can be large or run the other way; cell line not stated here;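 note: phosphodiesterase inhibitor Ro 20-1724 added with compounds to block cAMP breakdown; potency is the fitted concentration of half-maximal effect; nearly all actives have a fitted effect of over 60% in size; about a fifth of the inactives were tested at one dose only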
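Cells in DMEM/10% FBS with G418 were pretreated with compounds in DMSO plus […] (300 uM stock) for 30 min at 37C. cAMP was measured by HTRF (cAMP-d2 plus anti-cAMP antibody-K) after 30 min at room temperature.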
D2 potentiator – Beta-Arrestin HTS for Positive Allosteric Modulators of the Human D2 Dopamine Receptor: Potentiators; potentiation, % (test concentration not listed); actives 0.23% (n = 360,000); DiscoveRx D2 beta-arrestin cells, luminescence, 90 min; 100% = 57 uM dopamine signal; active = potentiation of 50% or more; inconclusive = 30% to 50%; inactive = 30% or less;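 note: compound concentration not given in the record; tested on top of an EC20 dose of dopamine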
Target sequence (P14416 whole entry, looked up): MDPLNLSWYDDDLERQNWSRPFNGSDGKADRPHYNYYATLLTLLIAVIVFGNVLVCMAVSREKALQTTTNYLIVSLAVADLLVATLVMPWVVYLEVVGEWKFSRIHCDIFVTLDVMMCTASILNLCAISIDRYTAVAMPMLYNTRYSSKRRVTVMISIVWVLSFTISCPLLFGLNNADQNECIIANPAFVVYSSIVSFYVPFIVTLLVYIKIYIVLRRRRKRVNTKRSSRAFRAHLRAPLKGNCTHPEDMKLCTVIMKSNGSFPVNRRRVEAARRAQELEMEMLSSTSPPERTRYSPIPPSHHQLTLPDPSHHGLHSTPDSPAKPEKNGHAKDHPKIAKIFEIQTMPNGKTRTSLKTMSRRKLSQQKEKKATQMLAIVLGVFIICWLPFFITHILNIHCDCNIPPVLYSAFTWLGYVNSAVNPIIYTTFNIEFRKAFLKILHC
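PathHunter D2 cells, attached overnight at 37 deg C, received compound in DMSO plus dopamine at EC20 (50 nM final) for 90 min at 37 deg C. Beta-arrestin recruitment was read as luminescence after 1 h with detection reagent at ambient temperature.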
Sfp inh – qHTS Assay for Inhibitors of Bacillus subtilis Sfp phosphopantetheinyl transferase (PPTase); Biochemical Sfp PPTase activity, qHTS; AID 1490, 2009; 4'-phosphopantetheinyl transferase ffp (Bacillus subtilis), Q9F4F7; actives 3.5% (n = 310,000); Potency, µM, inactives show max response, negative = inhibition, usual class: inhibitors; active = well fitted inhibition curve with a large enough effect; inconclusive = small, poorly fitted or top-dose-only effect, or another doubt; inactive = no such curve, though single readings can be large or run the other way;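 note: the enzyme is Sfp with the accession as filed and its product quenches rhodamine fluorescence; potency is the fitted concentration of half-maximal effect; 0% = enzyme reaction without inhibitor and -100% = no enzyme wells; top concentration of the series not given in the record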
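Sfp 15 nM + cpd, 15 min RT; start w/ rhodamine-CoA 5 uM, BHQ-2-YbbR 12.5 uM (final); 50 mM Hepes pH 7.6, 10 mM MgCl2, 0.01% NP-40, 0.01% BSA; read 525/598 nm at 0 and 30 min.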
An asterisk follows results filed as active; ? = inconclusive; . = not tested or not shown; & = joins results of further samples; [ ] = another dose, or the depositor's remark.

structure	Menin-MLL FL inh	TRPV1 PAM	ClpP mod	gsp antagonist	gsp ag	D2 potentiator	Sfp inh
COc1cc(/C=N/NC(=O)C(=O)NCc2ccco2)ccc1O	2.4	5.8	-0.5%	0.5%	-18.6%[15.4 µM]	5.7	20.3%
Cc1cc(C)c2c3c(sc2n1)C(=O)N(Cc1ccccc1)CC(=O)N3	-0.8	1.6	-17.8%	1.4%	?	-6.7	13.6%
S=C1NC(C23CC4CC(CC(C4)C2)C3)=CC(c2ccc3c(c2)OCO3)N1 (stereo unspecified)	7.8	0.0	.	8.7%	11.6%[15.4 µM]	-1.6	3.4%
Cc1cccc(NC(=O)CN(C)S(=O)(=O)c2ccc(-c3ccc(=O)[nH]n3)s2)c1C	.	-31.1	-5.5%	-17.1%	17.1%	-9.7	-4.6%
COCCN(C(=O)CCC(=O)Nc1cc(C)on1)C(C(=O)NC1CCCC1)c1ccc(C)cc1 (stereo unspecified)	0.3	24.9	-0.1%	2.3%	-33.8%[15.4 µM]	-34.4	1.3%
CCN(CC(=O)Nc1ccc(NC(C)=O)cc1)C(=O)/C=C/c1cn(-c2ccccc2)nc1-c1ccc(F)cc1	.	-9.0	65.7%	?	-1.3%	3.8	.
CSCCC1C(C#N)=C(N)Oc2n[nH]c(-c3cccs3)c21 (stereo unspecified)	7.6	?	-2.9%	-12.3%	-9.2%	27.0	-13.9%
O=C(N[C@H]1C/C=C\C(c2cccc(F)c2)N(Cc2ccccc2)C(=O)C1)OCC1c2ccccc2-c2ccccc21 (stereo partly specified)	.	.	-1.8%	4.3%	.	-6.2	.
CC(C(=O)c1c[nH]c(C(N)=O)c1)c1ncc(C(F)(F)F)cc1Cl (stereo unspecified)	-3.4	8.4	.	11.6%	-0.6%[15.4 µM]	-1.2	9.7%
CCc1cc(=O)oc2c(CN3CCN(C)CC3)c(O)ccc12	-3.0	6.3	-20.5%	8.2%	2.5%[15.4 µM]	-9.4	3.0%
CC(=O)Nc1ccc(NC(=O)C(C)OC(=O)/C=C/c2ccc3c(c2)OCO3)cc1 (stereo unspecified)	.	-8.1	?	4.0%	-10.0%	23.8	.
CCn1nc(C)c(CN2CCC(n3nccc3NC(=O)c3ccccc3OC)CC2)c1C	-0.1	-22.6	-1.5%	0.6%	5.3%	-32.3	10.2%

Single records, from the list above. Order of screens: Menin-MLL FL inh, TRPV1 PAM, ClpP mod, gsp antagonist, gsp ag, D2 potentiator, Sfp inh
CCN(CC(=O)Nc1ccc(NC(C)=O)cc1)C(=O)/C=C/c1cn(-c2ccccc2)nc1-c1ccc(F)cc1 is entered as ., -9.0, 65.7%, ?, -1.3%, 3.8, .
Cc1cccc(NC(=O)CN(C)S(=O)(=O)c2ccc(-c3ccc(=O)[nH]n3)s2)c1C is entered as ., -31.1, -5.5%, -17.1%, 17.1%, -9.7, -4.6%
Cc1cc(C)c2c3c(sc2n1)C(=O)N(Cc1ccccc1)CC(=O)N3 is entered as -0.8, 1.6, -17.8%, 1.4%, ?, -6.7, 13.6%
S=C1NC(C23CC4CC(CC(C4)C2)C3)=CC(c2ccc3c(c2)OCO3)N1 (stereo unspecified) is entered as 7.8, 0.0, ., 8.7%, 11.6%[15.4 µM], -1.6, 3.4%

Continuation:
structure	Menin-MLL FL inh	TRPV1 PAM	ClpP mod	gsp antagonist	gsp ag	D2 potentiator	Sfp inh
COC(c1ccccc1)c1nnc(CCC(=O)N2CCN(C3CCCC3)CC2)o1 (stereo unspecified)	.	26.4	-1.8%	-0.2%	5.4%	0.9	7.9%
c1ccc2c(c1)Cc1cc(CN3CCOCC3)ccc1-2	5.6	0.6	-1.1%	8.2%	-34.8%[inhibitor]	-13.6	17.3%
Cc1ccccc1OCCCc1c(C)n[nH]c1C	1.4	-6.0	.	.	-12.5%[15.4 µM]	4.7	5.3%
Cc1cccc(NC(=O)CN2CCN(C(=O)CN3C(=O)NC4(CCCCC4C)C3=O)CC2)c1C (stereo unspecified)	.	.	0.0%	-2.1%	23.8%	-1.1	.
O=C(NCc1ccco1)c1ccc(COCC(F)(F)F)cc1	2.4	3.4	-0.1%	3.7%	-10.4%	-15.7	12.0%
CCOC(=O)N1CCC(Nc2c(-c3ccc(C)cc3)c(=O)c2=O)CC1	7.4	-3.5	1.3%	-18.4%	-0.1%	-34.1	-12.7%
Cc1ncsc1CCOC(=O)C12CC3CC(CC(C3)C1)C2	6.3	-13.8	1.8%	-10.4%	-30.8%[inhibitor]	-10.7	0.5%
O=C(NC(=S)NNS(=O)(=O)c1ccccc1)c1cccnc1	4.8	6.2	.	5.1%	-18.6%	-4.8	4.8%
CC1CCCCN1S(=O)(=O)c1ccc(C(=O)Nc2nnc(-c3ccncc3)o2)cc1 (stereo unspecified)	-1.9	?	.	-8.4%	14.4%[15.4 µM]	-2.4	-0.4%
Nc1nnnn1/N=C/c1ccc(N2CCCCC2)c([N+](=O)[O-])c1	-0.9	-0.4	-13.6%	4.2%	12.9%	-19.3	-0.7%
CCOC(=O)N1CCN(S(=O)(=O)c2c(C)[nH]c(=O)[nH]c2=O)CC1	-1.3	24.4	0.1%	13.2%	4.4%	-1.2	11.0%
CN(C)c1ccc(P(=O)(Nc2ccccc2)N2CCOCC2)c(NC(=O)c2cccs2)c1 (stereo unspecified)	11.5	-10.5	1.5%	-5.4%	13.1%	-15.5	-10.0%
O=C(O)c1ccccc1-c1ccccc1C(=O)Nc1ccc2c(c1)CCC2	-0.4	3.7	0.6%	-5.3%	3.7%[15.4 µM]	-7.5	6.8%
CCOc1ccc(CN2CCNC(=O)C2CC(=O)NCCc2ccccn2)cc1 (stereo unspecified)	-8.3	-3.3	.	6.0%	-7.0%	-5.1	-8.8%
CCn1c(=O)cc(OCC(=O)Nc2ccccc2C#N)c2ccccc21	5.6	-4.0	-0.7%	3.0%	?	5.6	14.9%
Cc1ccc(S(=O)(=O)N2CCCN(S(=O)(=O)c3ccc(C)cc3)CC2)cc1	2.2	10.0	0.2%	4.8%	?	-12.7	21.2%
CCS(=O)(=O)N1CCC2(CC1)OCCN2S(=O)(=O)c1ccc(OC)cc1	.	2.4	1.5%	-0.8%	5.1%[15.4 µM]	-35.3	.
COc1cc(C2C(C#N)=C(C)NC3=C2C(=O)c2ccccc23)cc(OC)c1OC (stereo unspecified)	-1.7	-2.0	-0.8%	25.4%	-2.3%	-26.0	2.7%
Clc1ccc(-c2cc(CN3CCCCC3)no2)cc1Cl	-1.2	-33.0	.	2.1%	-18.7%	-21.8	-6.8%
Cc1ccc(-c2ccc(/C=N/n3cnnc3)o2)cc1Cl	5.5	-7.9	-16.5%	-0.3%	16.0%	-13.4	-1.4%
O=C(O)c1c2c(nc3ccc(Cl)cc13)CCC2	1.5	2.1	-0.2%	-14.2%	2.4%[15.4 µM]	-13.0	1.0%
CC(Sc1n[nH]c(N)n1)C(=O)Nc1cccc2ccccc12 (stereo unspecified)	.	10.1	-2.3%	9.7%	-3.7%	-1.7	.
COCCCNC(=O)CNC(=O)c1nn(-c2ccc(OC)cc2)c(=O)c2ccccc12	1.3	9.0	.	4.0%	19.9%	-0.1	14.7%
CCN(CC(=O)Nc1c(F)cccc1F)C(=O)C1CCN(C(=O)Nc2ccccc2)CC1	.	5.4	-1.0%	8.0%	3.1%	0.9	.
Cc1cccc(OCC(=O)Nc2ccc3c(C)cc(=O)oc3c2)c1	3.0	0.2	12.6µM*	1.4%	-15.5%	-8.4	-16.8%
CC(O)CNc1nc2c(c(=O)n(C)c(=O)n2C)n1Cc1cccc(Br)c1 (stereo unspecified)	0.1	-1.1	-0.1%	-0.8%	-59.1%[inhibitor]	5.5	16.0%
O=C(Nc1ccc([N+](=O)[O-])cc1)Nc1ccc(OC(F)F)c(Cl)c1	2.4	-14.6	-0.7%	39.8µM*	-26.5%	-7.0	-3.8%
Cc1ccccc1NC(=O)c1cccc(N2C(=O)C3C4CC(C(Br)C4Br)C3C2=O)c1 (stereo unspecified)	.	12.9	0.4%	-23.8%	-47.8%[inhibitor]	-6.0	9.8%
CN1CCN(S(=O)(=O)c2cccc(C(=O)Oc3ccc(C(C)(C)C)cc3)c2)CC1	.	6.2	-2.4%	-6.1%	-3.1%[15.4 µM]	-6.8	.
COc1ccc(OC)c(S(=O)(=O)N2CCN(C(=O)CCc3ccccc3)CC2)c1	.	.	-0.8%	7.4%	5.7%	14.8	.
CCCCCCC#Cc1cncc(C(=O)NNC(=O)Nc2cc(Cl)cc(Cl)c2)c1	1.0	1.2	.	5.0%	7.3%[15.4 µM]	0.1	17.6%
COC(=O)CCC(=O)NC1CC(C)(C)Cc2c1cnn2-c1ccc(F)cc1 (stereo unspecified)	-2.8	-9.1	.	4.2%	-0.1%	-0.6	10.0%
N#CC1(NC(=O)COC(=O)c2cc(O)c3ccccc3c2O)CCCCC1	.	5.9	-0.8%	-3.1%	3.3%[15.4 µM]	?	.
COc1cccc(C(=O)CSc2nnc(-c3ccco3)n2CC2CCCO2)c1 (stereo unspecified)	1.9	2.5	-1.5%	-8.4%	-35.9%[inhibitor]	-2.2	8.6%
COc1ccccc1CNS(=O)(=O)c1c(C)nc2sccn2c1=O	-2.8	-19.7	-28.2%&-26.9%	7.2%	-21.2%	-2.0	5.8%
COc1ccc2oc(=O)c(C(=O)NCC3CCCO3)cc2c1 (stereo unspecified)	1.0	?	28.2µM*	7.3%	17.8%	3.7	-22.3%
